Screening results from PubChem.
HPGD inh: HPGD (human) dehydrogenase inhibition; purified HPGD, NADH fluorescence kinetic, PGE2 substrate; P15428; Potency, µM, without a hit: top-dose activity change, negative = inhibition, hits mostly inhibitors; 4.3% of 150,000 active; AID 894; active = well fitted inhibition curve with a large enough effect (not every such curve was filed as active); inconclusive = small, poorly fitted or top-dose-only effect, or another doubt; inactive = no such curve, though single readings can be large or run the other way;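 also: top concentration of the series not given in the record; plate controls included wells without enzyme; inactives centre near -10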
Target sequence (P15428 whole entry, looked up): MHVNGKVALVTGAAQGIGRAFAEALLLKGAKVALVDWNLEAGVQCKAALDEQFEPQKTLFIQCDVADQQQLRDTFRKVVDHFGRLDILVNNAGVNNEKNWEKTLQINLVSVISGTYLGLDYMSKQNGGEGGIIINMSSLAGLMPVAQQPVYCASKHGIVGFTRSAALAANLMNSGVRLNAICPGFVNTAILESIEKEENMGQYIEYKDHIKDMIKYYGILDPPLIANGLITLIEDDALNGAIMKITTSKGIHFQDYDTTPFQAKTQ
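NADH formation kinetics: reaction with 30 uM PGE2 and 1 mM NAD+ (final), 20 nM enzyme, Tris-HCl pH 8 with Tween 20, after 15 min compound preincubation at room temperature. Fluorescence change, last versus first of five reads.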
An asterisk follows results filed as active; ? = inconclusive. % is scaled to controls: 0 for no effect and ±100 for the full control effect; potency is read from the fitted curve at half-maximal effect. An excerpt. The share of hits here may be higher or lower than overall.

| Compound | HPGD inh |
| --- | --- |
| CN1CCN(C(=O)c2cnn3c(C(F)(F)F)cc(-c4ccc5c(c4)OCO5)nc23)CC1 | 25.1µM* |
| Nc1nc(Nc2ccccc2)nc2c1ncn2[C@@H]1O[C@@H](CO)[C@H](O)[C@H]1O | -6.5% |
| CCOC(=O)N1CCC(NC(=O)C2CCCN(S(=O)(=O)c3cccnc3)C2)CC1 (configuration not stated) | -13.5% |
| O=C(CN1C(=O)COCC1=O)N1CCOCC1 | -9.3% |
| COCCNC(=O)CN(C)S(=O)(=O)c1ccc(Br)cc1 | -15.4% |
| O=C(NCc1ccncc1)C(=O)Nc1nc(C23CC4CC(CC(C4)C2)C3)cs1 | -12.2% |
| Cc1ccccc1NC(=O)c1sc(Cl)nc1C | -14.5% |
| Cc1c(NC(=O)CSc2ncn[nH]2)c(=O)n(-c2ccccc2)n1C | -6.9% |
| Cc1nc(NC(=S)NC(=O)c2cccs2)sc1C(=O)N(C)C | 22.4µM* |
| Cc1ccccc1OCCCC(=O)Nc1ccccc1C(F)(F)F | -25.4% |
| COc1ccc(-c2noc(CN(C(=O)c3c(-c4ccccc4Cl)noc3C)C(C)C)n2)cc1 | -13.8% |
| COc1ccc(C2CC(=O)c3cnc(NC(=O)c4cc(OC)cc(OC)c4)nc3C2)cc1 (configuration not stated) | -14.5% |
| O=C(CCC1COc2ccccc2O1)NC1CCCCC1 (configuration not stated) | -29.3% |
| Cc1nc(S(=O)(=O)c2cccc(Cl)c2)nc2c1CCC2 | -2.4% |
| O=[N+]([O-])c1cc(-c2cnc3ccccc3n2)ccc1Oc1ccc(F)cc1 | -7.2% |
| O=C(CSc1cn(CCNC(=O)c2cccs2)c2ccccc12)NCC1CCCO1 (configuration not stated) | -12.4% |
| CC1CCN(C(=O)CCc2nc3cc(S(=O)(=O)N(C)C)ccc3n2C)CC1 | -6.7% |
| COc1cc(C(=O)OCCN2CCOCC2)ccc1O | -7.9% |
| C=C1C2CC[C@@]3(C)C(c4ccoc4)OC(=O)C[C@@]13OC1CC(OC(C)=O)C(C)(C)C(CC(=O)OC)[C@@]12C (some centres not stated) | -2.7% |
| O=C(NN1CCOCC1)c1cc(-c2ccc(Br)cc2)nc2ccccc12 | -10.1% |
| O=C(Cn1c(=S)nc2ccccn21)N1CCc2ccccc2C1 | -16.1% |
| CN(C(=O)CSc1nc(N)c2c3c(sc2n1)CSC(C)(C)C3)c1ccccc1 | ? |
| Clc1ccccc1OCc1nc(-c2ccncc2)no1 | -28.2% |
| COc1cccc(NC(=O)Cc2c(O)c3ccccc3[nH]c2=O)c1 | -22.0% |
| COc1cccc2cc(C(=O)OC3CCN(C)CC3)c(=O)oc12 | -4.4% |

A draw from above in order of formula weight, low to high.
| Compound | HPGD inh |
| --- | --- |
| COc1cccc2cc(C(=O)OC3CCN(C)CC3)c(=O)oc12 | -4.4% |
| Cc1ccccc1OCCCC(=O)Nc1ccccc1C(F)(F)F | -25.4% |
| O=C(NN1CCOCC1)c1cc(-c2ccc(Br)cc2)nc2ccccc12 | -10.1% |
| CN(C(=O)CSc1nc(N)c2c3c(sc2n1)CSC(C)(C)C3)c1ccccc1 | ? |

New compounds follow
| Compound | HPGD inh |
| --- | --- |
| CCCc1cc(=O)n2[nH]c(C)cc2n1 | -18.8% |
| CSc1ccccc1NC(=O)c1ccoc1C | -14.8% |
| Cc1ccc(CCNC(=O)C2CCCN(S(=O)(=O)c3c(C)noc3C)C2)cc1 (configuration not stated) | -6.7% |
| O=C(c1cc(N2C(=O)C3C4CCC(C4)C3C2=O)ccc1Cl)N1CCN(c2ccc(F)cc2)CC1 (configuration not stated) | -17.2% |
| O=C(CNC(=O)c1ccco1)OCN1C(=O)c2ccccc2C1=O | -3.6% |
| O=C(Cc1c[nH]c2ccccc12)NCc1ccc(Cl)cc1Cl | -10.3% |
| COC(=O)CNc1nc(C2CC2)nc2c1nnn2Cc1ccccc1Cl | 1.4% |
| COC(=O)c1ccc(C)c(NC(=O)c2ccc(Cn3cc([N+](=O)[O-])cn3)o2)c1 | -19.9% |
| COc1ccc(/C=C\C(=O)NCc2ccc3c(c2)cc(C)n3C)cc1OC | -17.3% |
| CCn1c(-c2ccc(C(C)(C)C)cc2)n[nH]c1=S | ? |
| NC(=O)c1ccc(-n2nnnc2SCc2ccc(F)cc2)cc1 | -13.7% |
| CC(C)(C)C(=O)C(Cc1ccccc1Cl)n1cncn1 (configuration not stated) | -7.5% |
| COc1cc2c(cc1NC(=O)Nc1cccc(C)c1)oc1ccccc12 | ? |
| CCn1c(=O)cc(OCC(=O)N2CCCCCC2)c2ccccc21 | 31.6µM* |
| Cc1cc(C)nc(SCc2nnc(SCC(=O)NCc3ccco3)n2-c2ccccc2)n1 | -14.9% |
| CCOC(=O)Cc1csc(NC(=O)C(C)(C)C)n1 | 7.6% |
| Cc1ccc(/C=C2\SC(=S)N(CCCC(=O)Nc3ccccn3)C2=O)cc1 | -14.6% |
| O=C1CC(C(=O)Nc2ccc(Cl)cc2[N+](=O)[O-])C2(CCCCC2)O1 (configuration not stated) | -4.4% |
| Cc1nc(N2CCC(C)CC2)c2c(C)c(C(=O)O)sc2n1 | 20µM* |
| CC(C)C[C@H](NC(=O)OC(C)(C)C)C(=O)N1CCC(C(=O)O)CC1 | -2.0% |
| O=C(CCCc1ccccc1)N1CCN(c2ccc([N+](=O)[O-])cc2)CC1 | 0.2% |
| COc1ccc(NC(=O)N2CC3(CCN(C(=O)c4csnn4)CC3)C2)cc1 | -6.8% |
| CC1CCCCN1C(=O)c1cc2nc(-c3ccccc3)cc(-c3ccccc3)n2n1 (configuration not stated) | ? |
| Cc1ccc(-c2nc3ccccc3o2)cc1NC(=S)NC(=O)c1cc2ccccc2o1 | ? |
| COC(CNC(=O)c1c[nH]c2ccc(S(=O)(=O)N3CCC4(CC3)OCCO4)cc2c1=O)OC | ? |
| C=CC(C)(C)c1cc2cc3ccoc3cc2oc1=O | -18.8% |
| Cc1nc(N2CCN(c3ccccc3)CC2)[nH]c(=O)c1Cc1cccc2ccccc12 | -25.2% |
| CCCOC(=O)Nc1nnc(CCC)s1 | -11.9% |
| CCN(CC)C(=O)CSc1nnc(-c2cccs2)n1Cc1ccco1 | -17.4% |
| Cn1cccc1C(=O)N1CCC2(CCCN(c3ccncc3)C2)CC1 | -5.8% |
| COc1ccc(/C(C)=N/NC(=O)Cc2c(C)nc(C)[nH]c2=O)cc1 | -15.2% |
| COC(=O)CC(=O)CSc1nc2c(cc1C#N)CCCCC2 | ? |
| O=C(CSc1nnc(CNC(=O)c2ccco2)o1)NC1CCCC1 | -12.0% |
| CC(=O)OCCCN1c2ccccc2Nc2nnc(-c3ccccc3)cc21 | -4.8% |
| Cc1ccc(NC(=O)Cc2ccccc2Cl)cc1S(=O)(=O)N(C)C | -14.0% |
| O=S(=O)(Cc1ccccc1)N1CCc2ccccc2C1 | -8.0% |
| Cc1ccc2[nH]c(=O)c(C(c3nnnn3CCc3ccccc3)N3CCOCC3)cc2c1 (configuration not stated) | -23.3% |
| CCOCCCn1c(SCc2nc3ccccc3s2)nc2ccccc2c1=O | ? |
| COc1ccc(C(=O)N/C(=C\c2cccc3ccccc23)C(=O)NCCc2c[nH]c3ccccc23)cc1OC | ? |
| Cc1ccc(C(=O)Nc2nnc(-c3cccs3)s2)cc1C | ? |
| O=C(c1ccco1)c1cn(CC(=O)N2CCCc3ccccc32)c2ccccc12 | ? |
| Cn1cc(C(=O)NCc2ccc(F)cc2)c(=O)c2cc(S(=O)(=O)N3CCCCC3)ccc21 | -1.3% |
| CC(C)(C)c1cc(/C=C(\C#N)C(N)=S)cc(C(C)(C)C)c1O | ? |
| C1=C(C(c2nnnn2C2CCCCC2)N2CCCCC2)COc2ccccc21 (configuration not stated) | -3.8% |
| Cc1ccc(Nc2nnc(SCC(=O)Nc3cccc(S(=O)(=O)NC4=NCCCCC4)c3)s2)cc1 | -18.4% |
| CC(=N\Nc1ccc(Cl)cc1)/C(=N/O)C(=O)Nc1ccccc1 | -13.0% |
| Cc1cc2oc(C(=O)N(Cc3ccccc3)C3CCS(=O)(=O)C3)cc(=O)c2cc1Cl (configuration not stated) | -9.8% |
| Cc1ccccc1-n1ncc2c(SCC(=O)NCc3cccs3)ncnc21 | -17.2% |
| CN(C1CCCCC1)S(=O)(=O)c1ccc(C(=O)N2CCN(c3nc4ccccc4s3)CC2)cc1 | -14.6% |
| CCc1ccc(C(=O)CSc2nnc(C)c(=O)[nH]2)cc1 | -6.3% |

Remaining list, next part:
| Compound | HPGD inh |
| --- | --- |
| C=CCSc1nc2sc3c(c2c(=O)n1CC=C)CCc1ccccc1-3 | -8.5% |
| O=C(NC1CC2CCCC(C1)N2S(=O)(=O)c1ccccc1)C1CCCCC1 (configuration not stated) | -11.0% |
| FC(F)(F)c1cccc(CN2CCCCCC2)c1 | -5.0% |
| COc1ccc(C(=O)Nc2sc3c(c2C(=O)NCc2ccco2)CCCC3)cc1OC | ? |
| Fc1ccccc1N1CCN(C(c2ccncc2)c2nnnn2C2CCCC2)CC1 (configuration not stated) | -0.3% |
| Cc1ccnc(SCC(=O)N2CCC(C(N)=O)CC2)n1 | -8.8% |
| Cc1ccc(S(=O)(=O)N2CCN(Cc3cc(C(C)C)ccc3O)CC2)cc1 | -7.3% |
| N#Cc1c(OCC(=O)c2ccccc2)nc2c(c1-c1ccco1)CCc1ccccc1-2 | ? |
| C=C(C)CNC(=S)N/N=C(\C)c1ccc(OC)cc1 | -21.4% |
| CCNc1ncc2nc(-c3cc(F)cc(F)c3)c(=O)n(-c3ccc(OC)cc3)c2n1 | -19.3% |
| CCCCn1c(SC(C)C(=O)c2ccc(OC)cc2)nc2cc(S(N)(=O)=O)ccc21 (configuration not stated) | -15.6% |
| O=C(COc1ccc(S(=O)(=O)NC2CCCCC2)cc1Cl)NCc1cccnc1 | ? |
| FC(F)(F)c1ccc(/C=N/N2CCN(Cc3cccc4ccccc34)CC2)cc1 | -15.8% |
| O=C(CSc1nc2ccccc2[nH]1)c1cccs1 | -17.2% |
| CN(c1ccccc1)c1nc(N)c([N+](=O)[O-])c(NCc2ccco2)n1 | -16.4% |
| CC(=O)CCS(=O)(=O)c1ccc(Oc2ccc(S(=O)(=O)CCC(C)=O)cc2)cc1 | -9.3% |
| Cc1nc(SCC(=O)NC(C)(C)C)c2c(-c3cccs3)csc2n1 | -23.6% |
| CC(C)C(=O)Nc1ccc(C(=O)NNC(=O)NC2CCCCC2)cc1 | -6.4% |
| O=C(CN1CCCCCC1)Nc1ccc(F)c(F)c1F | -6.0% |
| Cc1ccccc1NC1(C#N)C(=O)Nc2ccccc21 (configuration not stated) | -4.8% |
| COc1ccccc1NC(=O)N(Cc1ccc2c(c1)OCO2)Cc1nc2ccccc2c(=O)[nH]1 | -19.2% |
| CC(C)c1ccc(N2CC(C(=O)Nc3nccs3)CC2=O)cc1 (configuration not stated) | -4.0% |
| Fc1ccc(NC(=S)N2CCN(c3cccc(C(F)(F)F)c3)CC2)cc1 | -6.9% |
| O=C(NCC1CCCO1)C(C(=O)c1ccccc1)n1cc(Cl)ccc1=O (configuration not stated) | -7.6% |
| Cc1[nH]c2ccccc2c1C(c1ccncc1)N1CCN(c2ccc(F)cc2)CC1 (configuration not stated) | -5.7% |

(next part)
molecule	HPGD inh
CCC(C)NC(=O)/C=C1\Sc2ccccc2NC1=O (configuration not stated)	?
CCn1c(SCC(=O)Nc2ccc(C(=O)OC)cc2)nnc1-c1cccs1	-10.0%
CCOc1cc(C)c(C(C)C)cc1S(=O)(=O)NCc1ccccn1	1.8%
CCOC(=O)Nc1ccc(OC)cc1S(=O)(=O)N1CCCCC1	-24.1%
CCOC(=O)c1c(NC(=O)OC)sc(C(=O)N(C)C)c1C	-10.7%
O=S(=O)(/N=C(/Nc1ccccn1)c1ccccc1)c1ccccc1	-3.1%
Cc1ccc(-n2cc(C(=O)c3cc(Cl)ccc3O)cc(C#N)c2=O)cc1	-23.1%
COC(=O)c1[nH]c2ccc(C)cc2c1NC(=O)Nc1ccccc1OC	-24.7%
COc1ccc(C2C=C(c3ccccc3)Nc3nc(NC(C)=O)nn32)cc1 (configuration not stated)	?
Cc1ccccc1-n1c(SCC(=O)NCc2cccs2)nc2ccccc2c1=O	?
O=C(O)C1CC(=O)n2c(nc3ccccc32)S1 (configuration not stated)	-17.2%
Cc1ccccc1CS(=O)(=O)CCC(=O)NCCCN1CCN(c2ccccc2F)CC1	-13.0%
Oc1c(C(c2cccs2)N2CCN(c3ccccc3)CC2)ccc2cccnc12 (configuration not stated)	1.78µM*
O=C(CCCn1c(=O)c2ccccc2n(CC(=O)NCc2ccco2)c1=O)NCc1ccco1	-4.5%
Cn1c(N2CCN(C(=O)Nc3ccc(C(F)(F)F)cc3)CC2)nc2ccccc21	-3.2%
CC(=O)N1CCN(S(=O)(=O)c2ccc(C)cc2)C1c1ccc(N(C)C)cc1 (configuration not stated)	-9.0%
COC(=O)c1c(C(=O)OC)c2ccncn2c1Cl	?
O=C(Oc1cccnc1)c1ccccc1[N+](=O)[O-]	-14.5%
Cc1cccc(NC(=O)COc2cccc3c2CCN(Cc2ccccc2)C3=O)c1C	-6.4%
COc1cccc(/C=N/n2c(=S)n(C)c3ccccc32)c1OC	-14.4%
O=C(O)/C=C/C(=O)NCc1ccccc1	-5.2%
O=C1N(S(=O)(=O)c2ccccc2F)C(=O)C2(CCCC2)N1S(=O)(=O)c1ccccc1F	-9.5%
C=CCn1c(COc2ccccc2F)nnc1SCC(=O)c1c[nH]c2ccccc12	-12.5%
Cn1c(Cn2nnc3ccccc32)nnc1SCC(=O)N1c2ccccc2CCc2ccccc21	-0.8%
Cc1cccc(NC(=O)C2CCCN2S(=O)(=O)c2cccc3cccnc23)c1 (configuration not stated)	-6.3%
CCOc1ccc(NC(=O)c2cn(CC(C)C)c(=O)c3c2c2ccccc2n3C)cc1	?
Cn1c(NC(=O)c2ccc(C(C)(C)C)cc2)cc(=O)n(C)c1=O	-0.1%
O=C(Nc1ccc(Cl)c(Cl)c1)c1ccc(Cn2c(=O)[nH]c3ccsc3c2=O)cc1	-14.2%
COC(=O)[C@H](CCSC)NC(=O)Nc1ccc(C(C)C)cc1	-3.9%
Cc1ccccc1-c1cncnc1NC1CCNCC1	-7.2%
